# Screening data (PubChem)
# KCNQ2 block: KCNQ2 potassium channel inhibitors, primary screen, cell-based, CHO-K1, FluxOR thallium flux, B-score (AID 2156); O88943; 20 min; active compounds read low; only compounds with negative scores are shown here; some inactives read as strong as hits; B-score at 10 µM; 1.1% of 310,000 active;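 active means fluorescence ratio B-score at most minus 3 library SDs, with starting brightness B-score within 2 library SDs, cut at about -5.5 in these data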
# Target sequence (O88943 whole entry, looked up): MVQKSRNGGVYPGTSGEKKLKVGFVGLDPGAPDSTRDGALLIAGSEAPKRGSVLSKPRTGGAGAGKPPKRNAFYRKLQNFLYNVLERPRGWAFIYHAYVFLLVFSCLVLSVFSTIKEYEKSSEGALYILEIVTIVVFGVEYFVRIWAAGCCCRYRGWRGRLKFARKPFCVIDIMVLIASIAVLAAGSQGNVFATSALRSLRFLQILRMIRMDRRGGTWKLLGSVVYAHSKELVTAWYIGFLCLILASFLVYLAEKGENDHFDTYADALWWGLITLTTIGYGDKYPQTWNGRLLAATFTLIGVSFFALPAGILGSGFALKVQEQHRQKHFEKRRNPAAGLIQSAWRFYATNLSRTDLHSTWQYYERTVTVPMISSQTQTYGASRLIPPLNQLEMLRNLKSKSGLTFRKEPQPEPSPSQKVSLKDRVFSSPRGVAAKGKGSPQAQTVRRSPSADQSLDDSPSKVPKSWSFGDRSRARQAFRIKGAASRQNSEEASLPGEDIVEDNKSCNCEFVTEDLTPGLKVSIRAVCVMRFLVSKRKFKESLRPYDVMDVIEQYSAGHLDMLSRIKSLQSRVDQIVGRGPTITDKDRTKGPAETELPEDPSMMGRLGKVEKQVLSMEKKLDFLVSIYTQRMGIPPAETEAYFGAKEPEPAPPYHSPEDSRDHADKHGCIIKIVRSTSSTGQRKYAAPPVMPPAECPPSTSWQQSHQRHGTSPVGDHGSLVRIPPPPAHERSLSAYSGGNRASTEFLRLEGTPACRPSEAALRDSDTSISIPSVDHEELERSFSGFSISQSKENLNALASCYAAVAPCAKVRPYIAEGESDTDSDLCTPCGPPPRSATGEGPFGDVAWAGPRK
# KCNQ2 block baseline: second read-out of KCNQ2 block, no call of its own (marks repeat the call); B-score; measured here: initial fluorescence intensity artifact check;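 brightness before thallium and not channel activity; 0 = typical well and far values either way flag optical interference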
# The depositor's hits bear a star; i = inactive. Not all compounds are listed; count on the stated rates, not on these rows.
SMILES,KCNQ2 block,KCNQ2 block baseline
COc1ccccc1N(C(=O)NCc1ccccc1)C1=NCC(C)S1 (stereo not given),i,-0.05
COc1ccccc1-c1ccc(/C=C2\C=CC(=O)O2)o1,i,5.2
COc1ccc(CN(C)C2c3ccccc3-c3ccccc32)cc1,i,2.8
Cc1onc(C(=O)Nc2cccnc2Cl)c1[N+](=O)[O-],i,1.5
Cc1c[nH]c2cccc(OCC(CNC(C)(C)C)OC(=O)c3ccccc3)c12 (stereo not given),i,0.67
CCCOC1CCCN(C(=O)c2cc(COc3cncc(Cl)c3)on2)C1 (stereo not given),-8.2*,0.04*
CCOC(=O)c1sc2ncn(/N=C/c3ccc(O)c(OC)c3)c(=O)c2c1C,i,1.2
CCn1cc(C(=O)NNC(=O)c2ccc(Cl)cc2)c(=O)c2ccc(C)nc21,i,-0.04
COc1ccc(-c2[nH]nc3c2C(c2ccsc2)C(C#N)=C(N)O3)cc1 (stereo not given),i,0.29
Cc1ccc(CSCCNC(=O)/C=C/c2ccc(Cl)cc2)cc1,i,-2
Cn1c(=O)[nH]c(=O)c2c1nc(N1CCOCC1)n2CCCSc1ncccn1,i,0.75
COc1ccc(S(=O)(=O)O)cc1P(=O)(c1ccccc1)c1ccccc1,i,1.1
COc1ccc(OC)c(NC(=O)C2CCCN2C(=O)C2CCC(C)CC2)c1 (stereo not given),i,1.6
COc1ccc(CNC(=O)COc2cc(=O)n(C)c3ccccc23)cc1,i,-0.97
COc1ccc(N2CCN(c3ncccc3C#N)CC2)cc1,i,0.25
Cc1cc(C)c(NC(=O)C2CCCN2CCOC(=O)c2cccc([N+](=O)[O-])c2)c(C)c1 (stereo not given),i,-0.07
COC(=O)C1=C(C)N(Cc2ccccc2)C(=S)N[C@H]1c1cccc(F)c1,i,-0.3
O=C(c1ccccc1Br)N1N=C(c2ccccc2)CC1c1ccccc1F (stereo not given),i,-2.2
C=CCn1c(NCc2ccc3c(c2)OCO3)nc2ccccc21,i,0.15
Cc1nn2c(N3CCOCC3)cc(C(C)C)nc2c1-c1ccccc1,i,-1.6
COc1cc(-c2nc3ccc(C)cn3c2NCc2ccccc2)ccc1SC1CCCCC1,i,-0.1
CCOC(=O)c1c(N)sc2c1C1CCN2CC1,i,-0.1
O=C(N/N=C/c1cccc(Oc2ccc([N+](=O)[O-])cc2[N+](=O)[O-])c1)c1cncc(Br)c1,i,-1.9
COc1ccc(-c2nc(CS(=O)CC(=O)NC3CCCCC3)c(C)o2)cc1OC (stereo not given),i,0.64
CCOc1ccccc1OCc1nn2c(COc3ccccc3)nnc2s1,i,1.2
Cc1cc(-c2[nH]nc3c2C(c2ccsc2)C(C#N)=C(N)O3)c(C)s1 (stereo not given),i,0.13
CCCCn1c(NS(=O)(=O)c2ccccc2)c(S(=O)(=O)c2ccc(C)cc2)c2nc3ccccc3nc21,i,-0.03
O=C(NNC1=NCCC1)C1CC1,i,2.9
Nc1cc(C(=O)O)c(N)c2c1C(=O)c1ccccc1C2=O,i,2.7
CC1(C)CC(=O)C(C(=O)Cc2ccccc2[N+](=O)[O-])C(=O)C1,i,-0.52
COC(=O)c1ccc[n+](CC(=O)c2ccc(Br)cc2)c1,i,-0.68
COc1ccc(C(=O)NCCc2c[nH]c3ccccc23)cc1S(=O)(=O)N1CCOCC1,i,2.1
CCOc1ccc(NC(=O)CSc2nnc(C34CC5CC(CC(C5)C3)C4)n2C)cc1,i,-0.75
O=C(Nc1cc(Cl)cc(Cl)c1)c1cnn2cccnc12,i,2.6
CN(C)c1ccc(/C=C/c2cc[n+](C)cc2)cc1,i,6.8
CC(C)=Cc1oc2ccc([N+](=O)[O-])cc2c1N1CC(C)OC(C)C1 (stereo not given),i,-2.3

# 17 compounds out of the list, ordered by SMILES length, smallest number first:
SMILES,KCNQ2 block,KCNQ2 block baseline
O=C(NNC1=NCCC1)C1CC1,i,2.9
CCOC(=O)c1c(N)sc2c1C1CCN2CC1,i,-0.1
COc1ccc(N2CCN(c3ncccc3C#N)CC2)cc1,i,0.25
CN(C)c1ccc(/C=C/c2cc[n+](C)cc2)cc1,i,6.8
O=C(Nc1cc(Cl)cc(Cl)c1)c1cnn2cccnc12,i,2.6
C=CCn1c(NCc2ccc3c(c2)OCO3)nc2ccccc21,i,0.15
CCOc1ccccc1OCc1nn2c(COc3ccccc3)nnc2s1,i,1.2
Nc1cc(C(=O)O)c(N)c2c1C(=O)c1ccccc1C2=O,i,2.7
Cc1nn2c(N3CCOCC3)cc(C(C)C)nc2c1-c1ccccc1,i,-1.6
O=C(c1ccccc1Br)N1N=C(c2ccccc2)CC1c1ccccc1F (stereo not given),i,-2.2
Cc1cc(-c2[nH]nc3c2C(c2ccsc2)C(C#N)=C(N)O3)c(C)s1 (stereo not given),i,0.13
COC(=O)C1=C(C)N(Cc2ccccc2)C(=S)N[C@H]1c1cccc(F)c1,i,-0.3
CCOc1ccc(NC(=O)CSc2nnc(C34CC5CC(CC(C5)C3)C4)n2C)cc1,i,-0.75
COc1ccc(C(=O)NCCc2c[nH]c3ccccc23)cc1S(=O)(=O)N1CCOCC1,i,2.1
Cc1cc(C)c(NC(=O)C2CCCN2CCOC(=O)c2cccc([N+](=O)[O-])c2)c(C)c1 (stereo not given),i,-0.07
CCCCn1c(NS(=O)(=O)c2ccccc2)c(S(=O)(=O)c2ccc(C)cc2)c2nc3ccccc3nc21,i,-0.03
O=C(N/N=C/c1cccc(Oc2ccc([N+](=O)[O-])cc2[N+](=O)[O-])c1)c1cncc(Br)c1,i,-1.9

# Remaining list, next part.
SMILES,KCNQ2 block,KCNQ2 block baseline
COc1ccc(C(=O)c2sc(Nc3ccccc3)nc2N)cc1,i,-1.1
COc1cccc(-n2c(CNC(=O)OC(C)(C)C)n[nH]c2=S)c1,i,0.74
Cc1ccc(C(=O)NCCN2CCCC2)cc1,i,1.1
O=C(OCc1cc2ccccc2[nH]c1=O)C1CCCO1 (stereo not given),i,0.84
O=C(OCCOCCN=C1NS(=O)(=O)c2ccccc21)c1ccccc1,i,-0.27
COc1ccc(CN2CCNC(=O)C2CC(=O)NCCc2nc(C)c(C)s2)cc1C (stereo not given),i,-0.54
O=C(Nc1ccc2ccccc2c1)N1CCN(c2ncccc2C(F)(F)F)CC1,i,-0.98
COC(=O)C1C2C=CC3(CN(CCc4ccccc4)C(=O)C13)O2 (stereo not given),i,3.1
Cc1ccc(CNC(=O)C(=O)NCC2CCCO2)cc1 (stereo not given),i,-0.02
O=C(COC(=O)C1=COCCO1)Nc1cc(S(=O)(=O)N2CCCCC2)ccc1Cl,i,4
O=c1c2c(-c3cccs3)csc2ncn1/N=C/c1ccccn1,i,-2.5
Brc1cccc(/C=N/Nc2nn[nH]n2)c1,i,0.15
CC(Oc1ccc(Cl)cc1Cl)C(=O)/C=C/N(C)C (stereo not given),i,0.75
Cc1ccc(-n2nnnc2SCc2nc3sc(C)c(C)c3c(=O)[nH]2)cc1,i,-0.04
CN1CCC(=NNC(=O)CN(c2ccc([N+](=O)[O-])cc2)S(=O)(=O)c2ccccc2)CC1,i,1.1
Cn1c(NC(=O)C[n+]2cc(-c3ccc(F)cc3)n3c2CCC3)cc(=O)n(C)c1=O,i,-0.39
CCOc1ccc2nc3c(cc2c1)CN(CCOC)C(=NC)S3,i,0.22
CC(C)COC(=O)NCC12C=CC(O1)C1C(=O)N(c3ccc(Cl)cc3)C(=O)C12 (stereo not given),i,1.4
CCOC(=O)Nc1ccc2c(c1)N(C(=O)N(C)C)c1ccccc1CC2,i,1.7
COc1ccc(C(=O)CN(C(=O)c2ccc(Cl)cc2)N2C(=O)c3ccccc3C2=O)cc1,i,-0.24
COc1nc(OCCNS(=O)(=O)c2ccc(C)cc2)nc(N(C)C)n1,i,-1.6
CCCOc1ccc([N+](=O)[O-])cc1C1NC(=S)NC(c2ccccc2)=C1C(=O)OCC (stereo not given),i,-0.46
Cc1cccc2cc(C(c3nnnn3C(C)(C)C)N3CCN(C(=O)c4ccco4)CC3)c(=O)[nH]c12 (stereo not given),i,0.92
COc1ccc(N2C(=O)CC(NCc3cccs3)C2=O)cc1 (stereo not given),i,-0.01
Cc1cc(NC(=O)c2ccc3c(c2)OCO3)ccc1NC(=O)c1ccccc1,i,-0.15
COc1ccc2cc(C3(C)NC(=O)N(CC(=O)Nc4c(C)n(C)n(-c5ccccc5)c4=O)C3=O)ccc2c1 (stereo not given),i,1.1
CN(CCCNC(=O)c1cccc(N2CCCC2=O)c1)c1ccccc1,i,-0.64
CCCCNC(=S)N/N=C1\CCCCc2ccccc21,i,2.3
Cc1c(C(=O)N2CCCCC2)sc(NC(=O)C23CC4CC(CC(C4)C2)C3)c1C#N,i,-0.37
CC(=O)N/N=C/c1cc(C)n(-c2ccc(Br)cc2)c1C,i,2
O=C(NCCS(=O)(=O)N1CCN(c2ccc(F)cc2)CC1)C12CC3CC(CC(C3)C1)C2,i,-1
CCN1CCN(C(=O)/C(C#N)=C/c2ccc(OC(F)F)cc2)CC1,i,0.59
Cc1csc(NC(=O)CCNS(=O)(=O)c2ccc3c(c2)c(=O)n(C)c(=O)n3C)n1,i,0.2
CC(C)N=C(NC#N)SCc1ccccc1F,i,3.4
O=C(c1ccccc1)C1C(c2ccccc2)C1[N+](=O)[O-] (stereo not given),i,1
COc1ccc(C2=NN(CC(=O)Nc3cc(C)ccc3C)C(=O)CC2)cc1,i,0.65
Cc1ccc(-c2nn(-c3ccccc3)cc2CN(Cc2ccccc2)C(=O)c2ccco2)o1,-15*,-0.65*
C/C=C/c1ccc(OCCNCc2ccccc2)c(OC)c1,i,0.3
COc1cc(-c2nnc3sc(Cc4ccccc4)nn23)cc(OC)c1OC,i,0.15
CCOC(=O)c1ccc(NC(=O)Cn2c(=O)oc3ccccc32)cc1,i,0.98
O=C(CSc1nc2ccccc2s1)NNC(=S)Nc1ccc(Cl)cc1,i,0.19
COc1ccc(C(=O)CCC(=O)NCCc2ccccc2F)cc1,i,0.1
Cc1ccc(C(=O)N=c2sccn2C)o1,i,-0.42
COc1ccc(OC)c2sc(NC(=O)C3COc4ccccc4O3)nc12 (stereo not given),i,-0.45
CC(C)c1ccc(-c2nn(-c3ccccc3)cc2C2C(C#N)=C(N)OC3=C2C(=O)CC(C)(C)C3)cc1 (stereo not given),i,-0.18
CCOc1cc2c3c(c1)C1(OCCO1)C(=O)N3C(C)(C)CC2C (stereo not given),i,0.42
Cc1ccc(NC(=O)Cn2ncc3c([nH]c4ccccc43)c2=O)cc1Cl,i,-0.03
CCn1cc(CN2CCc3c([nH]c4ccccc34)C2c2cccc(OC)c2OC)c(C)n1 (stereo not given),i,1.8

# Entries above that contain a tert-butyl group:
SMILES,KCNQ2 block,KCNQ2 block baseline
Cc1c[nH]c2cccc(OCC(CNC(C)(C)C)OC(=O)c3ccccc3)c12 (stereo not given),i,0.67
COc1cccc(-n2c(CNC(=O)OC(C)(C)C)n[nH]c2=S)c1,i,0.74
Cc1cccc2cc(C(c3nnnn3C(C)(C)C)N3CCN(C(=O)c4ccco4)CC3)c(=O)[nH]c12 (stereo not given),i,0.92

# (listing goes on)
SMILES,KCNQ2 block,KCNQ2 block baseline
CCn1nc(NS(=O)(=O)c2ccc([N+](=O)[O-])cc2)c2cc3ccc(C)cc3nc21,i,1.4
Nc1nnc(SCc2nc3scc(-c4ccccc4)c3c(=O)[nH]2)s1,i,3.1
COc1ccc(-c2nn(-c3ccccc3C)cc2CNCCc2cnc[nH]2)cc1F,i,0.42
CC(C)c1cc(C(=O)N2CCN(C(c3ccccc3)c3ccccc3)CC2)no1,i,-0.97
Cc1ccc(S(=O)(=O)N(C)Cc2ccc(C(=O)N/N=C/c3ccc(OC(F)F)cc3OC(F)F)cc2)cc1,i,-0.29
Cc1ccccc1OCc1n[nH]c(=S)n1-c1cccc(Cl)c1,i,2.3
Cc1ccc(OCC(=O)Nc2ccc3oc(=O)ccc3c2)c(C)c1,i,-1
COc1ccc(CNc2nc(NCc3ccc(OC)cc3)n(C(=O)c3ccccc3[N+](=O)[O-])n2)cc1,i,0.04
CCN(c1ccccc1)S(=O)(=O)c1ccc2[nH]c(=O)[nH]c2c1,i,0.12
Cc1ccc(NCc2nnc(SCC(=O)N3CCc4ccccc43)n2C)cc1,i,1.7
Cc1ccc(C)c(S(=O)(=O)N2CCCOC2CNC(=O)C(=O)NCCCn2ccnc2)c1 (stereo not given),i,1.5
CC(=O)Nc1ccc(S(=O)(=O)N(C)CC(=O)NCCC2=CCCCC2)cc1,i,2.2
Cc1ccc2c(c1)cc1c(=O)[nH]ncn12,i,0.29
CCOc1ccc(NC2=NC(C(=O)NCc3ccccc3)CC(=O)N2)cc1 (stereo not given),i,-0.75
CC1=Nc2ccccc2/C1=C/c1sc(=S)n(-c2cccc(C(=O)O)c2)c1O,i,5.6
CC(C)(C)NS(=O)(=O)c1ccc2nc(NC(=O)c3ccc(N4C(=O)CCC4=O)cc3)sc2c1,i,-0.7
CCOCC(=O)Nc1ccccc1C(=O)O,i,0.65
CCc1ccccc1NC1Nc2cc(C)nn2S1 (stereo not given),i,-0.04
CCN(CC(=O)Nc1ccc2c(c1)OCCO2)S(=O)(=O)c1ccccc1,i,-0.34
Cc1ccc(C(=O)NCC(c2ccco2)N2CCc3ccccc32)cc1C (stereo not given),-6.2*,-2*
S=C(NC1CCCCC1)N1CCc2ccccc2C1,i,1.1
O=C(N/N=C/c1cc(Br)c(Br)o1)C(O)c1ccccc1 (stereo not given),i,-0.46
O=C(O)c1ccc(S(=O)(=O)c2ccc3c(c2)C(=O)N(CC2CCCO2)C3=O)cc1 (stereo not given),i,0.82
Cc1ccc(N2CCN(c3ncccc3[N+](=O)[O-])CC2)c(C)c1,i,1.5
Cn1c2c(c3ccccc31)CCN1CCC[C@]21c1ccccc1,i,-0.71
CC(C)(C)NC(=O)CCCSc1nc2ccccc2s1,i,1.6
CCC(C)(C)n1nnnc1C(c1ccc(C)cc1)N1CCN(Cc2ccc3c(c2)OCO3)CC1 (stereo not given),i,-0.01
CCc1noc(C)c1C(=O)OCC(=O)N(CCOC)c1c(N)n(Cc2ccccc2)c(=O)[nH]c1=O,i,1
O=c1oc(-c2ccccc2Br)nc2ccccc12,i,-0.42
Cc1cc([N+](=O)[O-])ccc1NC1CCCC1,i,-0.58
CCCNC(=O)c1ccc(Cn2cc(C(F)(F)F)ccc2=O)cc1,i,1.5
O=C(CN1C(=O)c2ccccc2S1(=O)=O)c1ccccc1Cl,i,0.46
